Ab BasE inh: inhibitors of Acinetobacter baumannii siderophore enzyme BasE; purified BasE, fluorescence polarization binding displacement; inhibition, % (concentration not given with the values); hit rate 0.1% among 84,000;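 active = both replicates above 25% with normal brightness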;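 note: 0% = negative plate control signal and 100% = positive plate control signal; stock transfer was 100 nL into about 30 µL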
KSHV LANA nucl: inhibitors of KSHV LANA binding to nucleosomes; FITC-LANA1-23 / chicken nucleosome fluorescence polarization; stronger effect = lower value; z-score (concentration not given with the values); hit rate 0.3% among 51,000;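 active = both repeat wells score below -2 in polarization z-score versus plate sample wells, excluding overly bright wells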;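 note: 100 nL library stock added to about 30 µL; numbers are from one replicate; some results filed as inactive read as strong as hits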
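Test system: purified chicken nucleosomes with FITC-labelled LANA N-terminal peptide (1-23); Input: 240 nM purified chicken nucleosomes (480 nM peptide binding sites), final; Medium: TEN-BT buffer, pH 7.5; Timing: 10–45 min, room temperature; Technique: fluorescence polarization, 480 nm excitation, 535 nm parallel and perpendicular emission; Replication: duplicates.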
Active calls of the source: *; nt = not tested or not shown. The list is partial (hit frequency here may not be typical).

SMILES	Ab BasE inh	KSHV LANA nucl
CC(C)C(=O)Nc1nc2nc(-c3ccccc3)cc(=O)n2[nH]1	2.4	0.67
CC(/C=N/NC(=O)Cc1cccn1C)=C\c1ccco1	0.8	-0.032
COc1cc2c(cc1NC(=O)C(C)N1CCC(C)CC1)oc1ccccc12 (stereo not given)	1.0	nt
Cc1ccc(Oc2ccsc2C=C(C#N)C#N)cc1	1.8	0.6
COC(=O)c1ccc(/C=C/C(=O)OCC#N)cc1	1.2	nt
COc1ccc(S(=O)(=O)NCC(c2cccnc2)N2CCN(c3ccc(F)cc3)CC2)cc1C (stereo not given)	-2.1	0.33
COC(=O)c1sc2nc(SCC(=O)N3CCCc4ccccc43)n(N)c(=O)c2c1C	-0.7	-1.3
Fc1cccc(CSCc2c(F)cccc2Cl)c1	3.7	nt
COc1ccc(CN(C)CC(=O)NC2CCCCC2)cc1	2.4	nt
C=CCN1C(=O)/C(=C/c2c(N3CCNC(=O)C3CC(=O)OCC)nc3ccccn3c2=O)SC1=S (stereo not given)	-17	nt
Cc1cccc(C)c1NC(=O)Cn1nnnc1N	0.5	0.81
COc1ccc(OCCSc2ncnc3nc[nH]c23)cc1	-2.6	nt
Cn1nnnc1SCC(=O)Nc1ccc(C(=O)Nc2ccc3c(c2)OC2(CCCC2)O3)cc1	3.0	nt
Cc1ccc(-n2nc3c(N4CCCC(C(=O)N5CCc6ccccc65)C4)nnc(C)c3c2C)cc1 (stereo not given)	-0.4	nt
CSc1nnc(-c2cccnc2)n1-c1ccccc1F	0.5	nt

Given with bars between the fields: entries from further up
compound | Ab BasE inh | KSHV LANA nucl
COc1ccc(OCCSc2ncnc3nc[nH]c23)cc1 | -2.6 | nt
Cn1nnnc1SCC(=O)Nc1ccc(C(=O)Nc2ccc3c(c2)OC2(CCCC2)O3)cc1 | 3.0 | nt
Cc1ccc(-n2nc3c(N4CCCC(C(=O)N5CCc6ccccc65)C4)nnc(C)c3c2C)cc1 (stereo not given) | -0.4 | nt
CSc1nnc(-c2cccnc2)n1-c1ccccc1F | 0.5 | nt

(next part)
SMILES	Ab BasE inh	KSHV LANA nucl
NC(=O)c1ccc[n+]([C@H]2O[C@@H](COP(=O)([O-])OP(=O)(O)OC[C@H]3O[C@@H](n4cnc5c(N)ncnc54)C(O)[C@H]3O)C(O)[C@H]2O)c1 (stereo not given in full)	1.5	0.87
COc1ccc(C2CC(=O)N(CC(=O)N3CCCCC3)c3ccccc3S2(=O)=O)cc1OC (stereo not given)	-1.4	0.44
CC1=NN(c2ccccc2)C(=O)/C1=C\c1cn(CCC#N)nc1-c1ccc(F)cc1	0.5	nt
CCOCCCNc1ncnc2sccc12	-0.5	nt
Cc1ccc(NS(=O)(=O)c2ccc3c(c2)CCC(=O)N3)cc1Cl	-2.5	0.68
CCN(CC)S(=O)(=O)c1ccc(=O)n(CC(=O)Nc2cccc(OC)c2)c1	1.0	nt
Cc1cc(C)c2c(CC(=O)N3CCCc4ccccc43)coc2c1	5.7	0.33
NC(=O)CSc1nnc(-c2ccc(S(=O)(=O)N3CCCC3)cc2)o1	-0.9	0.55
COc1ccc(C2(CNC(C)=O)CCOCC2)cc1OC	2.6	-0.42
COc1ccccc1OCC#CCN1CCCc2ccccc21	-1.7	-0.33
CCOC(=O)C1CCCN(C(=O)S(=O)(=O)c2ccc(-c3ccccn3)s2)C1 (stereo not given)	-1.6	nt
CCN(Cc1cc2ccccc2[nH]c1=O)c1ccc(OC)cc1	0.7	-0.5
[S-]c1n[n+]2c(-c3ccccc3)cc(-c3ccccc3)nc2s1	-0.9	nt
O=C(CSc1nc2ccccc2nc1N1CCCCC1)N1CCN(c2ccc(Cl)cc2)CC1	1.7	0.096
CCCc1nc2c3ccccc3[nH]c(=O)n2n1	0.0	-0.03
Cc1ccc(NC(=O)CS(=O)CC(=O)Nc2ccc(N3CCOCC3)cc2)cc1Cl (stereo not given)	3.3	0.5
Cc1cc(=O)c(C(=O)Nc2ccc(N3CCOCC3)cc2N2CCOCC2)nn1-c1ccc(Cl)cc1	-1.4	nt
CCn1c(SCC(=O)NN2CC(=O)N(c3ccc(F)cc3)CC2=O)nnc1-c1cccs1	1.3	-0.45
CC(C)CNS(=O)(=O)c1ccc(CCC(=O)N2CCN(c3ccccc3)CC2)cc1	-2.0	1.9
COC(CN(C)C(=O)c1cn(C)c2ccc(S(=O)(=O)N3CCC(C)CC3)cc2c1=O)OC	-0.7	0.66
CC1CCCC(C)N1C(=O)COC(=O)c1c2c(nc3ccccc13)CCCC2 (stereo not given)	0.8	nt
CCOC(=O)c1ccc(NC(=O)Cn2cnc3c(oc4ccccc43)c2=O)cc1	0.2	-0.45
CC(Sc1nncs1)C(=O)NC(C)c1ccccc1 (stereo not given)	-1.5	nt
CCOc1ccc(-n2c(Cc3cc(=O)[nH]c(=O)[nH]3)nnc2SCC(=O)N2CCCC2)cc1	-1.1	-0.54
O=S(=O)(Cc1noc(-c2ccccc2Cl)n1)Cc1ccco1	-1.9	0.17
COc1ccc(C(=O)c2cnc3ccc(F)cc3c2N2CCN(c3ccccc3OC)CC2)cc1	-1.5	-0.39
CC1OC(C)C2Cc3ccccc3C2O1 (stereo not given)	0.3	0.041
CC(=O)N(C)c1nc(-c2ccccc2)cs1	-0.9	1
CNC(=S)N(CCCn1ccnc1)Cc1c(F)cccc1Cl	-3.0	nt
COc1ccc(N2C(=O)C3SC(N)=C(C#N)C(c4ccco4)C3C2=O)cc1 (stereo not given)	-1.6	nt
Cn1c(Cc2cccs2)nnc1SCc1ccc(C(=O)Nc2ccccc2)cc1	0.1	nt
Cc1ccc(/C=N/N2C(C)CCCC2C)cc1 (stereo not given)	-1.8	nt
O=C(COC(=O)C1CC1)NCc1ccccc1	2.0	nt
O=c1c2cnc(NCc3cccnc3)nc2ccn1Cc1cccnc1	-0.2	-0.12
CCCc1cc(N2CCN(c3ccccc3)CC2)n2c(nc3ccccc32)c1C#N	-1.1	nt
O=C(O)c1n[nH]c2c1CCCCC2	2.3	0.34
O=C(CCn1c(=O)c2cccn2c2ccc(F)cc21)NCc1ccccc1	2.4	-0.33
CCOC(=O)N1CC=C2C(C#N)=C(N)C(C#N)(C#N)C(c3ccc(CC)cc3)C2C1 (stereo not given)	-3.2	-0.26
Cn1c(SC(C#N)Cc2ccccc2)nnc1-c1ccc(C(C)(C)C)cc1 (stereo not given)	1.2	nt
N#Cc1cc2c([nH]c1=S)CCCC2	4.3	0.55
CC(Oc1ccc(C(C)(C)C)cc1)C(=O)O (stereo not given)	-0.9	nt
Cc1ccc(S(=O)(=O)NCCc2nnc3ccc(SCC(N)=O)nn23)cc1	4.3	-0.088
NC(=O)COc1coc(CN2CCN(c3ccccc3)CC2)cc1=O	4.3	-0.3
C=CCNc1nc(NCc2ccco2)nc(OCC)n1	0.1	0.27
CN(C(=O)Cn1ncc2c1-c1ccccc1OC2)c1ccccc1F	-1.4	-1.8
O=C1CCC(C(=O)N2CCN(c3ccc(F)cc3)CC2)=NN1	3.9	nt
CCOC(=O)C1CCCN(C(=O)Cc2ccc(OC)c(OC)c2)C1 (stereo not given)	0.6	-0.27
CCN(c1ccccc1)S(=O)(=O)c1ccc(C(=O)NCCCN2CCCC2=O)cc1	4.2	nt
O=C1Nc2ccccc2C1(C(F)(F)F)C(F)(F)F	-0.6	0.23
CCc1ccc2[nH]c(=O)c(C(c3nnnn3C(C)(C)C)N3CCc4ccccc43)cc2c1 (stereo not given)	-1.5	0.064
CCCCC[C@H](O)/C=C/[C@H]1C=CC(=O)[C@@H]1C/C=C\CCCC(=O)O	-3.0	-0.44
CSc1nnc(SCC(=O)Nc2c(C#N)c(C)c(C)n2Cc2ccco2)s1	2.8	nt
CC(C)OC(=O)/C(C#N)=C/c1ccco1	-25	nt
CSc1nsc(SCC(=O)OC2CC3CCC2(C)C3(C)C)n1 (stereo not given)	1.7	-0.55
CCN1/C(=C2\C(=O)N(c3ccc(Cl)cc3)N=C2C)C=Cc2ccccc21	-0.5	-1.6
CN(C)C(=O)C1Cc2ccccc2CN1S(=O)(=O)c1ccc(F)cc1 (stereo not given)	-3.1	-0.9
O=C(NCC(O)c1ccccc1)Nc1ccc2c(c1)CCO2 (stereo not given)	-0.6	-0.49
c1ccc2c(c1)nc1n2CCC1	5.2	-0.24
CC1[N+](=O)C(c2ccccc2)=C(c2ccccc2)N([O-])C1(C)C (stereo not given)	-1.8	0.44
O=C(C1CCCN(S(=O)(=O)c2ccc3nc(-c4ccccc4)[nH]c3c2)C1)N1CCc2ccccc21 (stereo not given)	0.9	-1.5

(cont.)
SMILES	Ab BasE inh	KSHV LANA nucl
Cc1cc(C)n2c(nc(=O)c3ccccc32)c1C#N	0.9	nt
CC(C)Nc1nc(NC(C)C)nc(Oc2ccc(=O)[nH]n2)n1	1.9	-0.62
Cc1ccc(Cn2nccc2NC(=O)c2cccnc2Sc2ccccc2)o1	-1.0	nt
COc1ccc(O)c(/C=N/NC(=O)c2ccn(Cc3ccc(Cl)cc3)n2)c1	1.1	-0.11
CC(=O)NC1CC2CCCC(C1)N2S(=O)(=O)c1ccccc1 (stereo not given)	-1.0	-0.04
CC(N=Cc1nc2ccccc2n1C)C12CC3CC(CC(C3)C1)C2 (stereo not given)	0.0	nt
O=C(/C=C/c1ccccc1)Nc1cccnc1	36*	nt
O=C1CCCc2nc3nc4ccccc4n3cc21	1.0	2.4
COc1ccccc1N(CC(=O)NCC1CCCO1)S(=O)(=O)c1ccc(C)cc1 (stereo not given)	-2.0	nt
COc1ccc(NC(=O)N2CC(C)OC(C)C2)c(OC)c1 (stereo not given)	3.4	0.05
CC(C)c1cc(C(=O)O)on1	-3.4	2.4
CCN(CC)c1cc(CS(=O)c2ccccc2)nc(-c2ccccc2)n1 (stereo not given)	nt	-0.84
COc1ccc(C2=CSC3=NS(=O)(=O)CCN23)cc1Cl	-0.7	nt
O=S(=O)(CCSc1nccc(-c2cccs2)n1)c1ccc(F)cc1	2.9	nt
CC(C)=NNC(=O)C(NC1CCCCC1)c1ccccc1 (stereo not given)	-2.5	nt
O=C(/C=C/c1ccccc1)NCC1COc2ccccc2O1 (stereo not given)	-1.1	2.2
COc1ccc(COC(=O)C2=C(C)NC3(O)c4ccccc4C(=O)C23O)cc1 (stereo not given)	-2.5	-0.7
Cc1cc(SCC(=O)NN2CCOCC2)nc(C(C)C)n1	3.9	-1.3
CCN(CC)c1nc(N)c2c(N)nc3c(c2c1C#N)CC(c1ccccc1)O3 (stereo not given)	0.4	nt
Cc1ccc(-c2nnc(-c3cc4c(ccc5ccccc54)oc3=O)o2)cc1	-1.5	0.99
CC(C)(C)NC(=O)CSc1nc(C(F)(F)F)cc(=O)[nH]1	-0.7	-0.025
COc1ccccc1-c1coc2cc(OCC(=O)OCC(C)C)ccc2c1=O	3.7	nt
COCCN=c1scc(-c2ccco2)n1/N=C/c1ccc(OC)cc1	-1.9	nt
C=CCOc1c(Br)cc(CNCCCN2CCOCC2)cc1OC	1.6	-0.92
CCC(C)NC(=O)CSc1cc(=O)n(C)c2ccccc12 (stereo not given)	0.1	0.0065
Cc1ccc(-c2csc3nc(CNCCN(C)C)[nH]c(=O)c23)cc1	0.1	nt
CN1C/C(=C\c2cccc3ccccc23)C(=O)/C(=C/c2cccc3ccccc23)C1	nt	-0.29
CCOC(=O)c1c(NC(=O)COC(=O)C2CCC(=O)N2)sc2c1CCCC2 (stereo not given)	3.0	nt
COc1ccc2cc3cc(C(=O)NCC4CCN(Cc5cccc(C)c5)CC4)oc3nc2c1	-13	-0.52
O=c1c2nnn(-c3ccc(Cl)cc3)c2ncn1CCN1CCCCC1	-1.1	-0.16

Single records, from the list above. Values in the order: Ab BasE inh | KSHV LANA nucl
Entry for CCN(CC)c1nc(N)c2c(N)nc3c(c2c1C#N)CC(c1ccccc1)O3 (stereo not given) : 0.4 | nt
Entry for C=CCOc1c(Br)cc(CNCCCN2CCOCC2)cc1OC : 1.6 | -0.92

Arranged by value in KSHV LANA nucl (smallest number first): 6 of the compounds above
SMILES	KSHV LANA nucl
Cc1cc(SCC(=O)NN2CCOCC2)nc(C(C)C)n1	-1.3
CN1C/C(=C\c2cccc3ccccc23)C(=O)/C(=C/c2cccc3ccccc23)C1	-0.29
CC(C)(C)NC(=O)CSc1nc(C(F)(F)F)cc(=O)[nH]1	-0.025
CCC(C)NC(=O)CSc1cc(=O)n(C)c2ccccc12 (stereo not given)	0.0065
Cc1ccc(-c2nnc(-c3cc4c(ccc5ccccc54)oc3=O)o2)cc1	0.99
O=C(/C=C/c1ccccc1)NCC1COc2ccccc2O1 (stereo not given)	2.2

The results go on.
SMILES	Ab BasE inh	KSHV LANA nucl
N/C(=N\C(=S)Nc1ccccc1)N1CCOCC1	-0.9	nt
CSc1nc(-c2ccccn2)nc(N)c1C#N	-0.4	nt
Cc1ccc(CSc2nc3cnn(C)c3c(=O)n2Cc2ccccc2)cc1	1.5	nt
Cc1ccc(CC(=O)NC(C)C(C)(C)C)cc1 (stereo not given)	1.3	-0.042
CCn1c(SCCC#N)nnc1-c1ccncc1	2.5	0.67
CN(Cc1cn(-c2ccccc2)nc1-c1ccc(Cl)cc1)C(=O)CCc1ccco1	-1.8	nt
CCc1c(C)nc2ncnn2c1Nc1cc(Cl)c(OC)cc1OC	-0.3	-0.2
COC(=O)/C(=C/c1ccco1)NC(=O)c1ccccc1	-1.9	0.43
CC(C)N1CC(O)=C(c2nc(-c3ccc(F)cc3)cs2)C1=N	0.8	nt
O=C(CSc1ccccc1)NN1C(=O)c2ccccc2C1=O	1.5	0.018
CCc1ccc(NC(=O)c2ccnc(-n3cnnc3)c2)cc1	-0.6	0.31
CCOC(=O)c1cnc(Nc2nc3ccccc3o2)nc1C	1.0	0.51
